# ClpP mod: qHTS Assay for Activators of ClpP. Potency, µM (highest dose often 57.5 µM), inactives show at the top dose activity change, negative = active. purified B. subtilis ClpP, FRET peptide cleavage, 20 min. 340,000 compounds, 1.9% hits; active = well fitted falling curve with a large enough effect; inconclusive = small, poorly fitted or top-dose-only effect; inactive = no such curve, though single readings can be large or run the other way; note: the source files actives as falling curves though it sought activators and does not explain the sign; nearly all actives have a fitted effect of over 65% in size; many hits overshoot -100%
# Target sequence (P80244 whole entry, looked up): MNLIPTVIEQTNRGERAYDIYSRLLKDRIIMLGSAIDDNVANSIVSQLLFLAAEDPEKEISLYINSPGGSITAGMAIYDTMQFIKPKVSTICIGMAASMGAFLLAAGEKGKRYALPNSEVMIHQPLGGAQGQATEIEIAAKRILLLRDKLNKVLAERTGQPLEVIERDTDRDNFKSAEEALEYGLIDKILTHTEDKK
#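 Purified B. subtilis ClpP, 10 microg/mL final in Tris/HCl pH8 with KCl, BSA, glycerol and Tween-20, cleaved an Abz/nitrotyrosine-quenched decapeptide. Fluorescence (ex 320, em 430) was read at 0 and 20 min at room temperature. Delta was normalized to 5.8 microM ADEP and DMSO/no-enzyme controls.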
# PINK1 expr mod: changes PINK1 expression. PINK1 immunofluorescence, high-content cytometry, 24 h. Potency, µM (doses to about 76.6 µM), inactives show top-dose activation (PINK1 increase), hits mostly activators. 410,000 compounds, 0.2% hits. AID 624263; active = well fitted activation curve with a large enough effect; inconclusive = small, poorly fitted or top-dose-only effect; inactive = flat fitted curve, though single readings scatter; cell line not stated here;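 note: % of control where 0% means no effect; nearly all actives have a fitted effect of over 65% in size; a mitochondrial uncoupler was the plate control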
#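 Measures PINK1 amount and localization on or inside mitochondria by immunofluorescence. Stable cells get compounds at 5 concentrations for 24 hours before fixation and staining; CCCP controls included.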
# Numbers without * were called inactive; ? = inconclusive. Potency is the fitted concentration of half-maximal effect. Not all compounds are listed. The share of hits here may be higher or lower than overall.
# Fields – ClpP mod, PINK1 expr mod
> Cc1ccccc1OCc1ccc(-c2nc(C#N)c(NCc3cccnc3)o2)o1
→ 3.9%, -0.9%
> O=S(=O)(c1ccc(Cl)cc1)c1nc(-c2cccs2)oc1SCc1ccc(F)cc1
→ -11%, 0.5%
> CC(C)OCCCNC(=O)c1ccc(Cn2c(=O)c3cccn3c3cccnc32)cc1
→ ?, 0.7%
> COc1ccc(S(=O)(=O)c2cn(Cc3ccccc3)c3cc(N4CCCC4)c(F)cc3c2=O)cc1
→ ?, -1.5%
> CCOc1ccccc1NC(=O)C1CCN(S(=O)(=O)c2ccc3c(c2)CCCN3C(C)=O)CC1
→ 0.8%, 1.3%
> Cn1cc(C(=O)N2CCN(c3cccc(C(F)(F)F)c3)CC2)c2c3ccccc3n(C)c2c1=O
→ 4.1%, 7.4%
> CCCCN(C)C(=O)C1CCCN(c2ncnc3onc(C)c23)C1 (stereo not given)
→ -1.6%, 1.1%
> COc1cc(Cl)c(C)cc1NC(=O)C1CCCN(c2ncnc3onc(-c4ccc(F)cc4)c23)C1 (stereo not given)
→ -30%, 0.9%
> Cc1nc2sccn2c(=O)c1S(=O)(=O)Nc1cc(C(F)(F)F)ccc1Cl
→ -3.1%, 1.2%
> COc1ccc(CC(=O)NCc2nc3cccnc3n2Cc2ccc(C)cc2)cc1
→ -0.5%, -0.7%
> COc1cccc(OCc2cc(C3Nc4ccccc4C(=O)N3c3ccccc3)ccc2OC)c1 (stereo not given)
→ 4.0%, 0.1%
> CCC(C)NC(=O)c1ccc(Cn2c(=O)c3cccn3c3cccnc32)cc1 (stereo not given)
→ ?, 0.6%
> Cc1cccc(CSc2nc(-c3cccc(C)c3)nc3c2Cc2c(CO)cnc(C)c2O3)c1
→ -1.1%, -0.8%
> COc1cccc(CN2c3ccccc3-c3nc(SCC(=O)Nc4ccccc4Cl)ncc3S2(=O)=O)c1
→ -5.6%, -0.2%
> CCc1cc2c(cc3c(=O)n(CC(=O)N4CCC(C)CC4)nc(CC)n32)s1
→ -6.1%, 1.3%
> CCOCCCNC(=O)c1ccc(NC(=O)N2CCCCc3ccccc32)cc1
→ 3.7%, 0.0%
> CCOc1ccc(NC(=O)CN2C(=O)CC(C)Sc3ccccc32)cc1 (stereo not given)
→ 1.5%, -0.8%
> CCOc1cc(C(=O)Nc2ccc3oc(-c4ccc(CC)cc4)nc3c2)cc(OCC)c1OCC
→ -16%, 0.7%
> CC1(c2nc3ccccc3[nH]2)CCCC2=Nc3ccccc3CN21 (stereo not given)
→ -3.1%, 0.3%
> CCC1=Nc2cc(C(=O)NCc3ccccc3OC)ccc2Sc2ccc(Cl)cc21
→ 1.8%, -0.1%
> Cc1ccc(NC(=O)c2cccc3c(=O)c4c([nH]c23)CCCC4)c(C)c1
→ 0.4%, -0.7%
> CCOc1ccc(NC(=O)c2c(NC(=O)Cc3ccccc3)sc3c2CCC(C)C3)cc1 (stereo not given)
→ ?, 5.4%
> CCOc1ccc(NC(=O)C2CCN(c3nnc(-n4c(C)ccc4C)s3)CC2)cc1
→ 0.4%, -0.4%
> COc1ccc([C@H]2CC(=O)C[C@@H](CCn3cc(CC4CCCC4)nn3)O2)cc1
→ 0.9%, 0.7%
> COc1ccc(C2CC(=O)N(Cc3cccc(C)c3)c3c2c(C)nn3-c2nc(C)cc(C)n2)c(OC)c1 (stereo not given)
→ 1.6%, -0.3%
> COc1cccc(-c2cc(C(=O)Nc3cc(Cl)ccc3O)on2)c1
→ -12%, 2.9%
> CCCOc1ccc(NC(=O)CC2C(=O)N(c3ccc(Cl)cc3)C(=O)N2CCc2ccncc2)cc1 (stereo not given)
→ 1.1%, 3.8%
> CCCCc1c(-c2ccccc2OC)ncn1CCc1ccccc1Cl
→ -9.3%, ?
> Cc1cc2nc(-c3ccc(OCc4ccccc4F)cc3)cc(C(F)(F)F)n2n1
→ -6.6%, 0.4%
> COc1cccc(OC)c1Cn1nnc2c(=O)[nH]c(C3CCN(C(=O)c4ccccc4)CC3)nc21
→ -1.8%, 0.8%
> COc1ccc(C2CC(=O)c3cc(-c4nc(-c5cccc([N+](=O)[O-])c5)cs4)c(=O)n(-c4ccccc4)c3C2)cc1 (stereo not given)
→ -2.3%, 0.6%
> Cc1onc(-c2ccccc2Cl)c1C(=O)Oc1ccc(Br)cc1
→ -28%, 3.8%
> O=c1c2c3c(sc2n(Cc2cc(=O)n4ccccc4n2)c(=O)n1-c1ccc(Cl)cc1)CCC3
→ -1.6%, 3.3%
> COc1ccccc1OCC(=O)NCC(c1ccc(Cl)cc1)N1CCOCC1 (stereo not given)
→ 0.2%, -1.8%
> Cc1ccc2c(=O)c(C(=O)c3ccc(F)cc3)cn(CC(=O)NCCc3ccccc3)c2n1
→ -3.6%, -0.5%
> COc1cccc(N2CC(NC(=O)COc3ccccc3F)CC2=O)c1 (stereo not given)
→ 1.1%, 0.9%
> COc1ccc(CN2CCc3c(c(=O)n4ncc(C(=O)N5CCN(c6ccccc6F)CC5)c4n3C)C2)cc1
→ 4.3%, 0.3%
> Cc1ccccc1CN1c2ccccc2-c2nc(SCC(=O)Nc3cc(F)ccc3F)ncc2S1(=O)=O
→ 4.4%, 1.8%
> COc1ccc(CCNC(=O)Cn2c(=O)c3cccn3c3ccc(F)cc32)cc1OC
→ ?, 0.2%
> Cc1ccc(-c2csc(=Nc3ccccc3)n2CCCO)cc1
→ 2.1%, 5.9%

# Copied from the list:
# Result of Cc1ccccc1CN1c2ccccc2-c2nc(SCC(=O)Nc3cc(F)ccc3F)ncc2S1(=O)=O under PINK1 expr mod: 1.8%
# Result of COc1cccc(N2CC(NC(=O)COc3ccccc3F)CC2=O)c1 (stereo not given) under PINK1 expr mod: 0.9%
# Result of COc1ccc(CN2CCc3c(c(=O)n4ncc(C(=O)N5CCN(c6ccccc6F)CC5)c4n3C)C2)cc1 under ClpP mod: 4.3%

# Complete entries as entered above:
# Results for `COc1ccc(CCNC(=O)Cn2c(=O)c3cccn3c3ccc(F)cc32)cc1OC` : ClpP mod = ?; PINK1 expr mod = 0.2%
# Results for `CCCCc1c(-c2ccccc2OC)ncn1CCc1ccccc1Cl` : ClpP mod = -9.3%; PINK1 expr mod = ?
# Results for `COc1cccc(OC)c1Cn1nnc2c(=O)[nH]c(C3CCN(C(=O)c4ccccc4)CC3)nc21` : ClpP mod = -1.8%; PINK1 expr mod = 0.8%

# The results go on:
# Fields – ClpP mod, PINK1 expr mod
> COc1cc(Nc2ncc3c(n2)CCN(Cc2cc(F)cc(F)c2)C3)cc(OC)c1
→ -6.0%, 2.4%
> CCCOc1ccc(CNC(=O)C(CC)n2nc(C)c3sc4ccccc4c3c2=O)cc1 (stereo not given)
→ ?, 0.5%
> COc1cc(Cl)c(NC(=O)C2CCN(S(=O)(=O)c3c(C)noc3/C=C/c3ccccc3F)CC2)c(OC)c1
→ -3.7%, 0.2%
> O=S(=O)(c1ccccc1Br)N1CCN(c2nc(-c3ccccc3)nc3ccccc23)CC1
→ -7.3%, -0.6%
> Cc1ccc(NC(=O)Cn2c(=O)n(CCCCC(=O)NCc3ccccc3Cl)c(=O)c3ccccc32)cc1C
→ -3.3%, 1.5%
> Cc1ccc(Cl)cc1N1CCN(C(=O)c2cn(C)c3ccc(S(=O)(=O)N4CCCCC4)cc3c2=O)CC1
→ -0.9%, 3.5%
> CCc1ccc(NC(=O)c2ccc3nc(C(C)C)oc3c2)cc1
→ -4.9%, 0.0%
> CC(C)c1ccc(NC(=O)c2ccc3c(O)c(S(=O)(=O)c4ccccc4)c(=O)[nH]c3c2)cc1
→ -1.4%, -1.1%
> O=C(NCc1ccc(Cl)cc1)c1ccc(NC(=O)N2CC3CCCN3c3ccccc32)cc1 (stereo not given)
→ -0.2%, 1.0%
> COc1ccc(Cl)cc1NC(=O)Cn1nc(Cc2ccncc2)c2ccccc2c1=O
→ 1.9%, 1.3%
> CCN(CC)C(=O)Cn1cc(SCC(=O)Nc2cccc(F)c2)c2ccccc21
→ -6.5%, -0.1%
> FC(F)(F)c1ccccc1Cc1c(-c2cccc(Cl)c2)nc2c3ccccc3ccn12
→ -2.8%, 1.4%
> COC(=O)[C@@]1(C(C)C)N=C(c2cc(OC)c(OC)c(OC)c2)[C@]2(O1)C(=O)Nc1ccc(F)cc12
→ 0.4%, 2.3%
> Cc1cccc(C(=O)Nc2nnc(S(=O)(=O)N(C)Cc3ccccc3)s2)c1
→ -3.8%, -0.9%
> O=C1COc2ccc(-c3cc(-c4ccccc4)c4c(n3)-c3cc(Cl)ccc3OC4)cc2N1
→ -7.3%, 0.6%
> CCOC(=O)c1ccc(Nc2nc3nonc3nc2Nc2cccc(C)c2C)cc1
→ 0.6%, ?
> Cc1ccc(Cl)cc1NC(=O)c1sc(-n2nc(C)c(Cc3ccc4c(c3)OCO4)c2C)nc1C
→ 0.3%, 0.4%
> Cc1ccc(S(=O)(=O)c2nnn3c2nc(N2CCCC2)c2sccc23)cc1
→ 0.0%, 1.7%
> Cc1cccc(N2CCN(C(=O)Cc3c(C(=O)O)c(C)cn3C)CC2)c1C
→ -3.7%, -1.9%
> COc1ccc(Nc2nc(N)nc(CSc3nc4ccccc4s3)n2)cc1
→ 1.6%, 1.3%
> CCOC(=O)c1cnc2ccc(C(=O)OC)cc2c1Nc1ccccc1CC
→ -1.5%, 2.6%
> COc1cn(CC(=O)Nc2ccc(C)cc2C)c(CN2CCCCC2)cc1=O
→ -2.4%, 1.0%
> CCSc1nc(-c2ccc(OC)cc2)nc2c1Cc1c(CO)cnc(C)c1O2
→ -2.0%, 0.9%
> O=C(NCC(c1cccnc1)N1CCc2ccccc2C1)C(=O)Nc1cccc(Cl)c1 (stereo not given)
→ 1.0%, 1.3%
> Cc1cc(C)cc(NS(=O)(=O)c2ccc3[nH]cc(C(=O)N4CCCC4)c(=O)c3c2)c1
→ -29%, 0.2%
> CCS(=O)(=O)c1c(Nc2cc(C)ccc2C)sc(C(=O)c2ccccc2)c1N
→ -14%, -1.8%
> COc1cc(NC(=O)CC(c2ccc(C)cc2)N2Cc3ccccc3C2=O)cc(OC)c1 (stereo not given)
→ -2.0%, ?
> CCCCCCNC(=O)CCc1c(C)nc2nc(-c3cc(OC)cc(OC)c3)nn2c1C
→ -15%, 1.2%
> O=C(CCCc1nc(-c2ccccc2)no1)Nc1cc(C(F)(F)F)cc(C(F)(F)F)c1
→ -0.6%, -0.9%
> CCOC(=O)/C(C#N)=C/c1ccc(-c2ccc(Br)cc2)o1
→ 1.9%, 4.2%
> Cc1ccccc1N1CCN(S(=O)(=O)c2nnc(NC(=O)c3ccc(C(C)C)cc3)s2)CC1
→ -15%, -0.3%
> COc1cccc(C(=O)NCCc2sc(-c3cccc(C)c3)nc2C)c1
→ 4.0%, 0.9%
> CCc1ccc(NC(=O)CSc2nc(-c3ccccc3Cl)nc3c2Cc2c(CO)cnc(C)c2O3)cc1
→ 0.1%, -0.2%
> CCOc1ccccc1NC(=O)c1ccc(F)c(S(=O)(=O)NCc2ccc3c(c2)OCO3)c1
→ 2.1%, 0.8%
> CCOc1ccc(S(=O)(=O)Nc2cccc(-c3ccc(OCC)nn3)c2)cc1
→ -0.3%, 0.6%
> Cc1ccc(C(c2sc3nc(-c4ccco4)nn3c2O)N2CCCCC2)cc1 (stereo not given)
→ 0.8%, 1.5%
> COc1cc(CN(C(=O)c2ccccc2[N+](=O)[O-])c2ccccn2)cc(OC)c1OC
→ 0.3%, 0.6%
> Cc1nc2nc(SCc3c(F)cccc3Cl)nn2c(C)c1Cc1ccccc1
→ ?, 0.2%
> Cc1ccc2nc(N3CCN(C(=O)C4CC4)CC3)sc2c1
→ -0.5%, 0.6%
> O=C(CCc1nc(-c2cccs2)no1)Nc1cccc([N+](=O)[O-])c1
→ 4.3%, -0.2%
> Cc1cccc(N(CC(O)Cn2c3ccccc3c3ccccc32)S(=O)(=O)c2ccc(F)cc2)c1 (stereo not given)
→ 32µM*, ?
> Cc1nn(C(=O)COc2ccccc2)c(C)c1Sc1ccccc1
→ -0.1%, 1.2%
> COc1ccc(Cn2c(=O)c3oc4ccccc4c3n(Cc3cccc(C(F)(F)F)c3)c2=O)cc1
→ ?, 2.3%
> Cc1cccc(C(=O)Nc2ccccc2-c2nc(-c3ccccc3)no2)c1
→ -7.7%, 1.1%
> CC1CCN(S(=O)(=O)c2cc(C(=O)N3CCN(c4ccccc4F)CC3)n(C)c2)CC1
→ -0.3%, 0.3%
> O=C(Nc1ccccc1Sc1ccccc1)c1cnn2c1NC(=C1CC1)C=C2C(F)F
→ -23%, 1.9%
> COC(=O)c1ccccc1NC(=O)CSc1cc(-c2ccccc2)nc(C)n1
→ 0.5%, 0.6%
> Cc1ccc(NC(=O)Cn2c(SCc3ccc(F)cc3)nc3cccnc32)cc1F
→ ?, 0.2%
> Cc1ccc(N2CCN(S(=O)(=O)c3nnc(NC(=O)c4ccc(C(C)C)cc4)s3)CC2)cc1
→ -0.5%, 0.1%
> CCc1ccc(CNC(=O)COc2cc(=O)n(CC)c3ccccc23)cc1
→ -13%, 8.6%
> Cc1nn(C)c2c1c(C(F)(F)F)cc(=O)n2Cc1ccc(Br)cc1F
→ ?, 1.6%
> COC(=O)c1ccc(NC(=O)CCCC(=O)OCC(=O)c2ccc(Cl)cc2)cc1
→ 0.3%, 1.0%
> CCCCc1c(-c2ccccc2OC)ncn1CCc1ccccc1
→ -1.1%, ?
> O=C(NCC(c1ccc2c(c1)OCO2)N1CCN(c2ccccc2)CC1)C(=O)Nc1ccccc1 (stereo not given)
→ 0.3%, -1.5%

# From PubChem BioAssay
